Vaccinia mCherry: qHTS for Stage-Specific Inhibitors of Vaccinia Orthopoxvirus: mCherry Reporter Primary qHTS. actives 0.63% (n = 310,000). Potency, µM (highest dose often 36.5 µM), for inactives: at the highest dose activity change, negative = inhibition, hits mostly inhibitors. Vaccinia virus mCherry reporter infection, fluorescence; about a quarter of the inactives have no number; active = well fitted inhibition curve with a large enough effect; inconclusive = small, poorly fitted or top-dose-only effect; inactive = no such curve, though single readings can be large or run the other way; tested in A549 cells; further: nearly all actives have a fitted effect of over 35% in size; inactives centre near -10
VACV Venus inh: qHTS for Stage-Specific Inhibitors of Vaccinia Orthopoxvirus: Venus Reporter Primary qHTS; AID 720580, 2013; Potency, µM (top dose mostly 36.5 µM), for the others: top-dose activity change, negative = inhibition, usual class: inhibitors; actives 0.46% (n = 330,000); Vaccinia virus Venus reporter expression, fluorescence; active means well fitted inhibition curve with a large enough effect; inconclusive means small, poorly fitted or top-dose-only effect; inactive means no such curve, though single readings can be large or run the other way; tested in A549 cells; further: nearly all actives have a fitted effect of over 30% in size; inactives centre near -10
Active calls of the source: *; i = inactive; u = inconclusive; x = no result given; [ ] = remark or other dose. On the % scale 0 is the no-effect control and ±100 the full control effect; potency means the concentration at half of the fitted maximal effect.

SMILES,Vaccinia mCherry,VACV Venus inh
COc1ccccc1NS(=O)(=O)c1cc(C(=O)NCc2ccncc2)ccc1C,-15%,-11%
CN(C)C(=O)N(CCCN1CCOCC1)Cc1cccc2ccccc12,i,-10%
CCN(CC(=O)Nc1ccc2c(c1)OCCO2)S(=O)(=O)c1ccccc1,-9%,-6%
O=C(CN1CCN(C(=O)c2cncn2-c2ccccc2)CC1)Nc1ccccc1Cl,-11%,-11%
CCc1ccccc1NC1Nc2cc(C)nn2S1 (centres undefined),-17%,-10%
O=C(N/N=C/c1cc(Br)c(Br)o1)C(O)c1ccccc1 (centres undefined),-2%,9%
S=C(NC1CCCCC1)N1CCc2ccccc2C1,-11%,-24%
Cc1ccc(C(=O)NCC(c2ccco2)N2CCc3ccccc32)cc1C (centres undefined),-16%,u
C=CCn1c(-c2ccc(S(=O)(=O)N3CCOCC3)cc2)csc1=Nc1ccccc1,x,-22%
COCCNC(C)C(=O)C12CC3CC(CC(C3)C1)C2 (centres undefined),-8%,-11%
O=C(O)c1ccc(S(=O)(=O)c2ccc3c(c2)C(=O)N(CC2CCCO2)C3=O)cc1 (centres undefined),x,-16%
Cc1ccc(N2CCN(c3ncccc3[N+](=O)[O-])CC2)c(C)c1,-20%,-12%
CN(C)CCCNC(=O)c1ccc(/C=N/O)nc1,u,-15%
COc1ccc(Cn2c(N)c(C#N)c3nc4ccccc4nc32)cc1,-8%,-4%
CC(C)(C)NC(=O)CCCSc1nc2ccccc2s1,i,-4%
Cc1ccccc1-c1cc2nc(NCCOc3ccccc3Cl)n(C)c(=O)c2s1,30%[activator],-13%
Cc1cc(NC(=O)C(C)SCC(=O)Nc2ccccc2N2CCCCC2)no1 (centres undefined),-22%,-20%
Cc1ccc(OCC(=O)Nc2ccc3oc(=O)ccc3c2)c(C)c1,-10%,-24%
CC1(C)C[C@H]2C3=CCC4[C@@]5(C)CC[C@H](O)[C@](C)(CO)C5CC[C@@]4(C)[C@]3(C)CC[C@@]2(C)[C@H](O)[C@@H]1O (some centres undefined),-2%,-4%
O=C(CN1C(=O)c2cccc([N+](=O)[O-])c2C1=O)N1CCc2ccccc2C1,-5%,-3%
O=C(C1CCCCC1)N1C[C@@H](n2cc(-c3ccc(F)cc3)nn2)[C@H](O)C[C@@H]1c1ccccc1,u,-27%
COc1ccc(CNc2nc(NCc3ccc(OC)cc3)n(C(=O)c3ccccc3[N+](=O)[O-])n2)cc1,-19%,-6%
COc1cc(-c2noc(C)c2C(=O)N[C@@H](CO)Cc2ccccc2)cc(OC)c1OC,i,0%
CCN(c1ccccc1)S(=O)(=O)c1ccc2[nH]c(=O)[nH]c2c1,-5%,1%
Cc1cccc(NS(=O)(=O)c2c(C)n[nH]c2C)c1,-30%,-18%
Cc1ccc(C)c(S(=O)(=O)N2CCCOC2CNC(=O)C(=O)NCCCn2ccnc2)c1 (centres undefined),i,-4%
Cc1ccsc1C(=O)N/N=C/c1ccc([N+](=O)[O-])cc1,-20%,-11%
CCOC(=O)c1cc(-c2cccc(O)c2)oc1C,i,6%
Cc1ccc2c(c1)cc1c(=O)[nH]ncn12,-2%,-4%
CCOc1ccc(NC2=NC(C(=O)NCc3ccccc3)CC(=O)N2)cc1 (centres undefined),i,-13%
CCOc1ccc(Oc2ccccc2NC(=O)CCc2nc3ccccc3c(=O)[nH]2)cc1,u,-29%
CCOC(=O)c1c(NC(=O)COC(=O)CCOc2cc(C)ccc2C)sc(C(=O)N(C)C)c1C,i,-10%
CCOc1ccc(C(=O)CCC(=O)NN2CCCCC2)cc1,-20%,-13%
CC(=O)Nc1ccc(S(=O)(=O)N(C)CC(=O)NCCC2=CCCCC2)cc1,-10%,-19%
COc1ccc(-c2nn(-c3ccccc3C)cc2CNCCc2cnc[nH]2)cc1F,-24%,-9%
CCC(CC)C(=O)NCc1nc2cccnc2n1Cc1ccc(F)cc1,-15%,-13%
CCn1cc(CN2CCc3c([nH]c4ccccc34)C2c2cccc(OC)c2OC)c(C)n1 (centres undefined),-26%,-11%
Cc1csc(SCC(=O)NCc2ccccc2)n1,-5%,-7%
Cc1ccc(S(=O)(=O)N(C)Cc2ccc(C(=O)N/N=C/c3ccc(OC(F)F)cc3OC(F)F)cc2)cc1,-13%,-23%
COc1ccc(OC)c(/C=N/OC(=O)Nc2ccc(Cl)cc2)c1,-2%,-2%
O=c1c2ccccc2nc2n1C(CSCc1ccc(Cl)cc1Cl)CS2 (centres undefined),x,-22%
CC(Sc1ccc2nnc(-c3ccc(F)cc3)n2n1)C(=O)O (centres undefined),i,-8%
CC(C)c1cc(C(=O)N2CCN(C(c3ccccc3)c3ccccc3)CC2)no1,i,-18%
O=C(Nc1ccc(Br)cc1)c1cccc(S(=O)(=O)Nc2cnc3ccccc3c2)c1,u,u
Cc1ccc(S(=O)(=O)c2cn(Cc3ccccc3)c3cc(N4CCCC4)c(F)cc3c2=O)c(C)c1,-29%,-15%
O=C(NC(Cc1ccccc1)C(=O)N1CCN(S(=O)(=O)c2ccccc2)CC1)c1ccccc1 (centres undefined),i,-15%
COc1cccc(CN2CCNC(=O)C2CC(=O)N(C)Cc2nc(C)cs2)c1OC (centres undefined),-12%,1%
Cc1ccc(/C=C2\C(=O)Nc3ccccc32)o1,-23%,-23%
COc1ccc(CCNC(=O)CCCC(=O)n2nc(C)c3ccccc32)cc1OC,-11%,-3%
NC(=O)c1ccccc1OCC(=O)Nc1ccc2c(c1)OCCO2,-5%,-6%
O=C(NCc1cccnc1)c1cc(Sc2ccc(F)cc2F)nc2ccccc12,-19%,-24%
Cc1nc(SCc2cccc(Cl)c2)nc2c1CCCC2,-5%,-3%
COc1cc(NCCCn2ccc(NC(=O)OCc3ccccc3)nc2=O)cc(OC)c1OC,u,-8%
CN(C)P1(=O)N(C)CCN1C,28%,10%
CC1CCc2c(sc3ncn(Cc4ccc(C(=O)O)cc4)c(=O)c23)C1 (centres undefined),i,-7%
COc1ccc(C(=O)CCC(=O)NCCc2ccccc2F)cc1,-6%,-9%

(further entries)
SMILES,Vaccinia mCherry,VACV Venus inh
COc1ccc(OC)c2sc(NC(=O)C3COc4ccccc4O3)nc12 (centres undefined),2%,-14%
O=C(Nc1ccccc1)c1cc2c(-c3ccccc3)nn(-c3ccccc3)c2s1,-19%,-16%
Cc1ccc(C(=O)N=c2sccn2C)o1,-9%,-2%
COc1ccc(C(c2nnnn2Cc2ccc(F)cc2)N2CCN(c3ccccc3)CC2)cc1 (centres undefined),x,-1%
Cc1ccc([C@@H]2C[C@H]3[C@@H](CN2S(=O)(=O)c2ccc(Cl)cc2)C(=O)C[C@@H](c2ccc(C)cc2)N3S(=O)(=O)c2ccc(Cl)cc2)cc1,-25%,-8%
NC(=O)CC(NC(=O)Cc1cccc2ccccc12)c1ccc(NCCc2ccccc2F)c([N+](=O)[O-])c1 (centres undefined),-11%,-27%
CCCC(=O)NC(C)c1nc2ccccc2n1CC (centres undefined),-9%,5%
CCC(C)(C)NC(=O)C(c1ccccn1)N(C(=O)c1csnn1)C1CCCCC1 (centres undefined),-15%,-16%

Laid out differently: entries from further up.
Results follow in this order: Vaccinia mCherry | VACV Venus inh
- Cc1ccc(C)c(S(=O)(=O)N2CCCOC2CNC(=O)C(=O)NCCCn2ccnc2)c1 (centres undefined)
    i | -4%
- Cc1ccsc1C(=O)N/N=C/c1ccc([N+](=O)[O-])cc1
    -20% | -11%

(next part)
SMILES,Vaccinia mCherry,VACV Venus inh
CC(C)c1ccc(-c2nn(-c3ccccc3)cc2C2C(C#N)=C(N)OC3=C2C(=O)CC(C)(C)C3)cc1 (centres undefined),-14%,-14%
CC(C)NC(=O)C1C(c2ccc(C(F)(F)F)cc2)=Nc2ccccc2N1C(=O)c1ccco1 (centres undefined),u,-17%
CCOc1cc2c3c(c1)C1(OCCO1)C(=O)N3C(C)(C)CC2C (centres undefined),x,-4%
CCOC(=O)c1ccc(N2CC(O)=C(c3nc4ccccc4c(=O)[nH]3)C2=N)cc1,x,-7%
COc1ccc(C(C#N)N2CCC(c3ccccc3)=N2)cc1 (centres undefined),-12%,-12%
Cc1ccc(S(=O)(=O)N2C(c3ccc(Cl)c(Cl)c3)CC=C(C(=O)O)C2c2ccc(Cl)cc2)cc1 (centres undefined),-29%,-17%
O=C(NNC1=NS(=O)(=O)c2ccccc21)c1ccccc1,-2%,9%
Cc1cccc(C)c1NC(=O)COC(=O)C1CC1,0%,-6%
COc1cc(-c2nnc3sc(Cc4ccccc4)nn23)cc(OC)c1OC,u,-28%
O=C(O)CC/C(=N/NC(=O)CNC(=O)c1ccc2c(c1)OCCO2)c1ccccc1,-11%,6%
CNc1oc(C)nc1S(=O)(=O)c1ccccc1,i,-16%
OC1CCC(Nc2ncnc3sccc23)CC1 (centres undefined),-19%,-13%
O=C(COc1coc(CN2CCN(Cc3ccccc3)CC2)cc1=O)Nc1ccccc1,-19%,-13%
Cc1c(-c2ccc(Cl)cc2)c(=O)oc2c(CN3CCN(CCO)CC3)c(O)ccc12,-17%,-20%
O=C(CSc1nc2ccccc2s1)NNC(=S)Nc1ccc(Cl)cc1,-5%,1%
Cc1ccc(C(=O)CSc2nnc(C(C)C)n2C)cc1C,4%,-7%
CC1CNC(=S)N(c2ccc(F)cc2)C1=O (centres undefined),i,-4%
CN1OC[C@@H]2CN(C(=O)NC3CCCCC3)[C@H](c3ccc(N4CCCCC4)cc3)C[C@@H]21,i,-10%
COC(=O)C1=C(c2ccc(S(C)(=O)=O)cc2)C[C@@H]2CC[C@H]1N2C(=O)N1CCC(C)CC1,i,-16%
COc1ccc(NC(=O)C(NC(C)=O)C(=O)NCc2ccc(F)cc2)cc1 (centres undefined),x,-11%
Cc1ccc(-n2ncc3c(N4CCN(c5ccc(F)cc5)CC4)ncnc32)cc1,-5%,1%
N#C/C(=C\c1ccc(-c2ccccc2)o1)C(=O)Nn1cnnc1,-9%,-2%
O=C(c1cc(-c2cccc(O)c2)on1)N1CCCCC1,21%,-5%
COc1cc(-c2cc(NC=O)c3ncc(-c4ccc(C(C)=O)cc4)n3c2)ccc1O,10µM*,11µM*
COc1ccccc1CNC(=O)CS(=O)(=O)c1ccccc1,-17%,-7%
O=C(NCc1ccc2c(c1)OCO2)c1c(Cl)cccc1Cl,-9%,-11%
O=C(c1ccccc1)C1C(c2ccccc2)C1[N+](=O)[O-] (centres undefined),-14%,-3%
C#CCNC(=O)C1=C[C@@H](c2ccc3c(c2)OCO3)[C@H](CCCO)[C@@H](OCC)O1,i,-9%
CCOC(=O)c1cc(OC)c2cccc(CN3CCC(C)(C(=O)NCCOC)C3)c2c1 (centres undefined),i,-2%
O=C(Nc1nnc([C@@H]2O[C@H](CO)[C@@H](O)[C@H]2O)s1)Nc1cccc2c1CCCC2,5%,4%
Cc1cc(C)c(NC(=O)C2=COCCO2)c(C)c1,i,1%
O=C(NCCS(=O)(=O)N1CCN(c2ccc(F)cc2)CC1)C12CC3CC(CC(C3)C1)C2,u,u

Three compounds picked at random from those above, as already listed:
SMILES,Vaccinia mCherry,VACV Venus inh
Cc1cc(C)c(NC(=O)C2=COCCO2)c(C)c1,i,1%
O=C(NCCS(=O)(=O)N1CCN(c2ccc(F)cc2)CC1)C12CC3CC(CC(C3)C1)C2,u,u
C#CCNC(=O)C1=C[C@@H](c2ccc3c(c2)OCO3)[C@H](CCCO)[C@@H](OCC)O1,i,-9%

Continuation.
SMILES,Vaccinia mCherry,VACV Venus inh
CC(=O)N/N=C/c1cc(C)n(-c2ccc(Br)cc2)c1C,-12%,-10%
O=C(COc1cccnc1[N+](=O)[O-])NC1CCS(=O)(=O)C1 (centres undefined),-12%,-3%
Cc1c(C(=O)N2CCCCC2)sc(NC(=O)C23CC4CC(CC(C4)C2)C3)c1C#N,i,-8%
COc1cccc(CNC(=O)c2cc(-c3cccs3)nc3ccccc23)c1,-14%,-6%
CN(N=O)c1ccc2c(c1)Cc1ccccc1-2,-1%,-10%
COc1ccc(C2CC(c3cccs3)=NN2C(=O)COC(=O)c2cc3ccccc3cc2O)cc1OC (centres undefined),i,1%
Cc1csc(NC(=O)CCNS(=O)(=O)c2ccc3c(c2)c(=O)n(C)c(=O)n3C)n1,-8%,-6%
CCOC(=O)c1sc(C)c2c1NC(c1ccc(Cl)cc1)NC2=O (centres undefined),x,-13%
COC(=O)CCCC1=CC2=C(c3ccccc3)C(=O)C(C)(OC(=O)C3CCCC3)C(=O)C2=CN1C(CO)CO (centres undefined),i,-19%
CCN1CCN(C(=O)/C(C#N)=C/c2ccc(OC(F)F)cc2)CC1,-16%,-9%
Cc1ccccc1-c1noc(CCC(=O)NC2CCCCC2)n1,i,-21%
COc1ccccc1CN1COc2ccc3c(oc(=O)c4ccccc43)c2C1,-3%,-24%
CN(Cc1ccccc1)c1ccc(-c2nc(-c3ccccn3)no2)cc1[N+](=O)[O-],i,-7%
CCC1(Cc2ccccc2)C(=O)NC(=S)N(C)C1=O (centres undefined),i,2%

From PubChem
